# Assay outcomes from PubChem.
# CBX7 AlphaScr: blocks human CBX7 binding to H3K27me3 peptide; O95931; AlphaScreen His6-CBX7 / biotin-H3K27me3 peptide binding; stronger effect = lower value; normalised signal (fraction of DMSO) (test concentration not listed); hit rate 1.1% among 66,000; in the data active = normalised signal below about 0.5;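 note: 100 nL library stock added to about 20 µL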
# Target sequence (O95931 whole entry, looked up): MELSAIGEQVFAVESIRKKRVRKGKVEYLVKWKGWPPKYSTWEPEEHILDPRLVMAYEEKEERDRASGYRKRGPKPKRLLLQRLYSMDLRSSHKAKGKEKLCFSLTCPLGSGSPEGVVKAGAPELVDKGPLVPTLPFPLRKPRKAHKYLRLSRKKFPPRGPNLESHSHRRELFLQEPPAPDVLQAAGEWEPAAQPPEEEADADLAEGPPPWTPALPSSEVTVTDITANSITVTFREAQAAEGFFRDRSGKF
# CBX7 AlphaScr z-score: also measured in CBX7 AlphaScr; calls as there; z-score; measured here: z-score of CBX7 signal; some inactives read as strong as hits; reference of the scale not given here;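 same signal on another scale; lower means less binding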
# Active calls of the source: *; & = joins results of further samples. A portion of the library; rates above refer to the full screens.
SMILES | CBX7 AlphaScr | CBX7 AlphaScr z-score
COc1ccc(NC(=O)C(Cc2ccccc2)NS(=O)(=O)c2ccc3c(c2)CCC(=O)N3)cc1 (stereo not given) | 0.88 | -2.2
CCCN(CCC)CCCNC(=O)c1cn(CC)c(=O)c2cc(OC)c(OC)cc12 | 1.2 | 1.7
O=C(C1CCC(CNS(=O)(=O)c2cccc3cccnc23)CC1)N1CCc2ccccc2C1 (stereo not given) | 1 | 1.5
CC(NC(=O)c1cc(-c2ccc(F)cc2)on1)c1ccccc1 (stereo not given) | 1.1 | 0.085
Fc1ccc(N2CCN(CCCNc3nc4ccccc4c4nc(-c5ccccc5)nn34)CC2)cc1 | 0.95 | -0.77
O=C(Nc1ccccc1Cl)N1CCN(c2ccc3nncn3n2)CC1 | 1.1 | 2.4
CCOC(=O)c1ccc(NC(=O)CC2C(=O)N(c3ccc(F)cc3)C(=O)N2Cc2cccs2)cc1 (stereo not given) | 0.93 | -0.32
CCOC(=O)N1CCC(Nc2c(NCCC(C)C)c(=O)c2=O)CC1 | 1.1 | 1.9
CCCc1cc(C(=O)NC(C)C)no1 | 1.1 | 1.1
CC(C)CCNC(=O)C1(S(=O)(=O)c2ccc(Cl)cc2)CC1 | 0.82 | -6.8

# Among those listed so far, two contain an aryl methoxy group:
SMILES | CBX7 AlphaScr | CBX7 AlphaScr z-score
COc1ccc(NC(=O)C(Cc2ccccc2)NS(=O)(=O)c2ccc3c(c2)CCC(=O)N3)cc1 (stereo not given) | 0.88 | -2.2
CCCN(CCC)CCCNC(=O)c1cn(CC)c(=O)c2cc(OC)c(OC)cc12 | 1.2 | 1.7

# More compounds.
SMILES | CBX7 AlphaScr | CBX7 AlphaScr z-score
O=C(Nc1ccc(OCc2ccccc2)cc1)Nc1ccc2snnc2c1 | 0.96 | -1.6
O=C(COc1ccc2oc3c(c2c1)CCCC3)Nc1ccc(Cl)cc1 | 1 | -0.038
Cc1cc(NC(=O)CCCOc2ccc(Cl)cc2Cl)no1 | 1.1&0.99 | 1.5&-0.42
O=C(Nc1nnc(-c2ccccc2Cl)o1)c1ccc(S(=O)(=O)N2CCCC2)cc1 | 0.89 | -1.8
Cc1nc(Oc2cccc(C(F)(F)F)c2)c2c3c(sc2n1)CCC3 | 1.1 | 2.3
CN(C)c1nc2nonc2nc1Nc1cccc(Cl)c1 | 1 | 0.37
COc1ccccc1CNC(=O)CCC(=O)Nc1ccc2nc(N3CC(C)CC(C)C3)cc(C)c2c1 (stereo not given) | 1.1 | 1.9
Cc1ccccc1-c1nc(CN2CCC(C(=O)O)CC2)c(C)o1 | 1.1 | 0.77
O=C(Nc1c(C(=O)N2CCCCCC2)cnn1-c1ccccc1)c1ccccc1F | 0.92 | -0.36
CCC1=Nc2cc(C(=O)NC(C)c3ccccc3)ccc2Sc2ccccc21 (stereo not given) | 1.1 | 1.6
COc1ccc(-c2nc(-c3ccccc3)c(-c3ccc(Cl)cc3)[nH]2)c(OC)c1 | 0.75 | -9.7
Cc1ccn2cc(-c3cccc(S(=O)(=O)N4CC(C)OC(C)C4)c3)nc2c1 (stereo not given) | 0.99 | -0.25
O=C(Nc1ccccc1F)c1oc2ccccc2c1NC(=O)C12CC3CC(CC(C3)C1)C2 | 1.1 | 2
CCN(C(=O)Cn1nc(Cc2cccnc2)c2ccccc2c1=O)c1ccccc1F | 1 | 1.4
O=C(C1=CCN(S(=O)(=O)c2ccc(F)cc2)CC1)N1CCN(c2ccccc2)CC1 | 1 | 0.2
O=C(c1cc(-c2ccc(Cl)c(Cl)c2)on1)N1CCN(c2ccc(F)cc2)CC1 | 1.1 | 1.3
CCN(C(=O)c1cc2c(s1)-c1ccccc1OC2)c1ccc(F)cc1 | 1.2 | 6.7
Cc1cccc(C)c1Nc1c(-c2ccccc2)nc2sccn12 | 0.54 | -9.9
COc1ccc(-n2c(/C=C/c3c(C)n(C)c4ccc(OC)cc34)nc3ccccc3c2=O)cc1 | 0.94 | -0.65
O=C(CCc1nc(-c2ccccc2F)no1)NCc1ccc2c(c1)OCO2 | 0.9 | -1.5
COc1ccc(-c2cc(C(F)(F)F)nc(NC3CCCC3)n2)cc1OC | 1.2 | 11
Cc1ccc(NC(=O)c2c(C)c(-c3ccc(Cl)cc3Cl)nc3ccccc23)cc1C | 1.1 | 0.21
Cn1nc(C(=O)N2CCCC2)c2ccccc2c1=O | 1.1 | 2.4
CC(C)n1c(CCNC(=O)c2ccc(Cl)cc2)nc2ccccc21 | 0.96 | -0.71
CC(C)OCCCNC(=O)c1csc2c1CCCCC2 | 0.9 | -2.6
COc1ccc(NC(=O)c2cc(C)no2)cc1 | 0.98 | -0.3
COc1cc(NS(=O)(=O)c2ccc(Nc3nc(-c4cccnc4)cs3)cc2)nc(OC)n1 | 1.3 | 0.39
CC1CCN(c2nc3nonc3nc2Nc2ccc3c(c2)OCO3)CC1 | 0.94 | -0.94
Cc1noc(C)c1CCC(=O)N1CCN(c2ccc(N3CCOCC3)nn2)CC1 | 0.98 | -0.44
COc1ccc(Nc2cc(C(=O)NCCCN3CCOCC3)c3ccccc3n2)cc1 | 0.91 | -1.1
O=C(Nc1nnc(C2CC2)o1)c1ccc(S(=O)(=O)N2CCCC2)cc1 | 0.45* | -16*
COc1cc(Cl)c(C)cc1NC(=O)CCc1nc2ccccc2[nH]1 | 1.1 | 2.1
COCCn1c(-c2ccc(OC)cc2)nc2ccccc21 | 1 | -0.25
CCC(C)NC(=O)c1ccc2c(c1)N(Cc1ccc(C)cc1)C(=O)c1ccccc1S2 (stereo not given) | 0.78 | -0.9
CCc1ccccc1NC(=O)Cn1c(SCc2cc(C)ccc2C)nc2ccncc21 | 1 | 1.9
CN1CCN(CCCNC(=O)Cn2ncc3c2-c2ccccc2OC3)CC1 | 1 | 0.4
CCOC(=O)c1cccc(NC(=O)c2csc3c2CCCCC3)c1 | 1.2 | 7.9
CCCCN(CCCC)CCCNC(=O)CS(=O)(=O)Cc1nc(-c2ccc(C)cc2)oc1C | 1 | 0.0063
Cc1nc2c3ccccc3nc(NCc3ccc4c(c3)OCO4)n2n1 | 0.96 | -0.75
OC(COc1ccc(F)cc1)Cn1c(C(F)(F)F)nc2ccccc21 (stereo not given) | 1 | 0.72
Cc1ccc(Cn2nnc3c(=O)n(CC(=O)NCc4ccc(F)cc4)cnc32)cc1 | 0.89 | -1.8
CCOc1ccc(CN2C(=O)c3ccccc3C2C(=O)NCCc2ccccc2)cc1OC (stereo not given) | 0.99 | -0.26
COc1ccc(CNC(=O)CSCc2nc(-c3ccc(OC)c(OC)c3)oc2C)cc1 | 1 | 0.76
CCCc1ccc(C(C)NC(=O)c2cc(C)on2)cc1 (stereo not given) | 1 | 1.1
COc1ccc(Nc2nc(C)nc3sc4c(c23)CCCC4)c(OC)c1 | 0.88 | -3.2
COc1ccc(CN2CC(C(=O)NCCCN3CCC(Cc4ccccc4)CC3)CC2=O)cc1 (stereo not given) | 1.1 | 1.1
COc1ccc(NC(=O)c2cc(-c3ccc(Br)cc3)on2)cc1OC | 1.1 | 0.13
O=c1c2ccccc2nc(SCc2c(F)cccc2F)n1Cc1ccc2c(c1)OCO2 | 0.88 | -0.89
CCOC(=O)N1CCN(C(=O)C2CCN(c3nnc(-n4cccc4)s3)CC2)CC1 | 0.94 | -0.59
Brc1ccc2nc(N3CCNCC3)nc(-c3ccccc3)c2c1 | 1.2 | 4.8

# More entries
SMILES | CBX7 AlphaScr | CBX7 AlphaScr z-score
CC1CCCCC1NC(=O)c1ccc2c(c1)N(Cc1ccc(F)cc1)C(=O)c1ccccc1S2(=O)=O (stereo not given) | 1 | 0.61
CCN1CCN(c2nc(-c3ccccc3O)nc3ccccc23)CC1 | 0.85 | -1.7
Clc1ccc2nc(-c3ccsc3)c(Nc3ccccc3)n2c1 | 1 | 0.019
CC1CCC(NC(=O)C2CCN(S(=O)(=O)c3cnc[nH]3)CC2)CC1 (stereo not given) | 1 | 0.14
Cc1ccccc1Cn1c(=O)c(CCC(=O)NCc2ccc(F)cc2)nc2ccccc21 | 1.1 | 0.94
O=C(Nc1ccc(CN2CCOCC2)cc1)c1cc2ccccn2n1 | 0.95 | -0.9
Fc1ccccc1COc1ccc(-c2nnn(Cc3ccccn3)n2)cc1 | 1 | 0.31
CCOc1ccc(NC(=O)CCc2c(C)nc3ncnn3c2C)cc1 | 1.1 | 1.9
O=C(CN1CCCCC1)NCC1(c2ccccc2)CCCC1 | 0.94 | -1.3
COCCCNc1ncnc2c1c(-c1ccccc1)cn2-c1cccc(Cl)c1 | 0.98 | -0.39
CN(C)Cc1c(O)ccc2c1c(-c1ccccc1)nn2-c1ccccc1 | 0.94 | -0.23
CCOc1ccccc1NC(=O)C1C(C(=O)O)C2C=CC1C21CC1 (stereo not given) | 1.1 | 2.4
O=C(NCCCN1CCOCC1)c1cc2nc3c(c(C(F)(F)F)n2n1)CCc1ccccc1-3 | 1.1 | 0.64
CCSc1nnc2c(n1)OC=Nc1ccccc1-2 | 0.92 | -0.93
CCOC(=O)C1CCN(C(=O)C2CCN(S(=O)(=O)c3cnc[nH]3)CC2)CC1 | 1.1 | 2.1
COc1cccc(-n2nc(C(=O)Nc3cc(C)c(Cl)cc3OC)c3ccccc3c2=O)c1 | 1 | 0.99
CC(C)CCNC(=O)C1CCN(C(=O)c2cc3sccc3n2C)CC1 | 1 | 0.52
O=C1c2ccccc2C(=O)N1c1cccc(-c2csc(Nc3ccc(F)cc3)n2)c1 | 0.96 | -0.71
O=C(NCc1cccs1)c1cc(-c2cccs2)nc2ccccc12 | 1 | 1.2
Cc1ccc(NC(=O)CN2C(=O)c3ccccc3C2=O)c(C)c1 | 1.2 | 1.8
COc1ccc(CNC(=O)C(CC(C)C)NS(=O)(=O)c2ccc3nc(C)sc3c2)cc1 (stereo not given) | 1 | 0.67
Cc1ccc(NC(=O)C(C)N2CCCCC2)c(C(=O)c2ccccc2)c1 (stereo not given) | 0.91 | -1.3
Cc1oc(-c2ccccc2Cl)nc1C(=O)NC1CC1 | 1.1 | 0.35
Cc1ccc(NC(=O)C(Cc2ccccc2)N2C(=O)c3ccccc3C2=O)cc1Cl (stereo not given) | 1 | 0.03
O=C(CSc1nnnn1-c1ccc(C(=O)O)cc1)NC1CCCCC1 | 1.1 | 1.5
Cc1ccc(N2C(=O)c3ccccc3C2Nc2cc(Cl)ccc2C)nc1 (stereo not given) | 0.93 | -0.9
COc1ccc(-c2cn(-c3cccc(C)c3)c(=O)[nH]2)cc1 | 1.1 | 1.6
Cc1ccc(CC2CC(=O)N(c3ccccn3)C2=O)cc1 (stereo not given) | 1 | 1.1
CCCCN(CC)CCCNC(=O)Cn1nc(Cc2ccncc2)c2ccccc2c1=O | 1.3 | 3
COc1ccccc1Cc1nc2ccccc2nc1SCC(=O)Nc1ccc(F)cc1F | 1.1 | 0.81
Cc1nc(Nc2nc3ccccc3o2)nc2c1CCC2 | 1.2 | 2.3
CCOC(=O)c1ccc(NC(=O)Cn2nnc(-c3ccc(C)cc3)n2)cc1 | 1.1 | 0.93
Cc1oc(-c2ccc(Cl)cc2)nc1CN1CCCC(C(=O)NCCCN2CCOCC2)C1 (stereo not given) | 1 | 0.35
COc1ccccc1OCCSc1nc2ccccc2n1C | 1 | 0.12
CN(C)c1ccnc(NCc2ccccc2)c1C#N | 1 | 0.8
O=c1c(-c2cc3ccccc3o2)coc2cc(O)ccc12 | 1.2 | 3.2
Cc1cccc(Cn2cnc3c(nnn3Cc3ccc(F)cc3)c2=O)c1 | 0.98 | -0.48
CCOC(=O)c1[nH]c(C)c(C(=O)NC(C)CC)c1C (stereo not given) | 1 | 1.2
Cc1ccccc1CN1C(=O)c2ccccc2Sc2ccc(C(=O)NCc3ccccc3)cc21 | 1 | 0.44
O=C(Cn1ccc2ccccc2c1=O)NCCC(=O)Nc1cccc(C(F)(F)F)c1 | 0.99 | -0.32
CCOC(=O)C1CCCN(c2c(NCCc3ccccc3)c(=O)c2=O)C1 (stereo not given) | 1 | 0.84
CC1=Nc2cc(C(=O)NC(C)c3ccccc3)ccc2Sc2ccc(Cl)cc21 (stereo not given) | 0.89 | -2.7
COc1ccc(Nc2nc3nonc3n3cnnc23)cc1 | 0.99 | -0.25
CS(=O)(=O)c1ccc(-c2nnn(CC(=O)O)n2)cc1 | 0.95 | -0.58
Cc1nnc(Nc2ccc(S(N)(=O)=O)cc2)c2ccccc12 | 1 | 0.068
Cc1c(C(=O)NCCCN2CCCC2=O)oc2ccc(S(=O)(=O)N3CC(C)CC(C)C3)cc12 (stereo not given) | 1 | 0.073
O=C(CSCc1ccccc1)Nc1nnc(Cc2ccccc2)s1 | 1 | 1
CN(CCNC(=O)C1CC(=O)N(C2CCCC2)C1)Cc1ccccc1 (stereo not given) | 1 | 2.2
O=C(CN1C(=O)CSc2ncccc21)NC1CCCC1 | 1 | 0.83
O=C(CSc1nnc(-c2ccc(Cl)cc2Cl)o1)Nc1ccc(F)cc1 | 1.1 | 1.8

# Continued.
SMILES | CBX7 AlphaScr | CBX7 AlphaScr z-score
CC1CCCCC1NC(=O)c1cc(-c2ccncc2)nc2ccccc12 (stereo not given) | 0.98 | -0.27
Cc1ccc2c(c1)-c1c(cnn1CC(=O)NC1CC1)CO2 | 1 | 0.72
Cc1ccc2cc(CCNC(=O)C3CCCCC3)c(=O)[nH]c2c1 | 1.1 | 2.1
O=C(C1CCC1)N1CCc2cc(S(=O)(=O)Nc3ccc4c(c3)OCCO4)ccc21 | 1.1 | 2.2
Cc1ccc(NC(=O)CS(=O)(=O)c2nc(-c3ccc(C)cc3)cn2-c2ccc(C)cc2)cc1 | 0.64 | -3.6
COc1ccc(-c2cc(C(=O)Nc3c(C)nn(Cc4ccc(C)cc4)c3C)no2)cc1 | 1.1 | 0.61

# Entries of single compounds, looked up by structure:
# Shown for `CC1CCCCC1NC(=O)c1cc(-c2ccncc2)nc2ccccc12` (stereo not given) → CBX7 AlphaScr = 0.98; CBX7 AlphaScr z-score = -0.27
# Shown for `COc1ccc(-c2cc(C(=O)Nc3c(C)nn(Cc4ccc(C)cc4)c3C)no2)cc1` → CBX7 AlphaScr = 1.1; CBX7 AlphaScr z-score = 0.61
# Shown for `Cc1ccc(NC(=O)CS(=O)(=O)c2nc(-c3ccc(C)cc3)cn2-c2ccc(C)cc2)cc1` → CBX7 AlphaScr = 0.64; CBX7 AlphaScr z-score = -3.6
